AF4-AF9 inh: inhibitors of human MLL-AF4/AF9 interaction; AID 651704; AlphaScreen, biotin-AF4 peptide binding to FLAG-AF9; inhibition, % at 10 µM; 0.47% of 350,000 active; P42568;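 active = every replicate reaching a set inhibition limit, whatever the replicate mean, cut at about 25% in these data; inconclusive = mean inhibition reaches that limit but some replicates miss it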;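 also: 0% = plate neutral control median and 100% = total signal loss; the record names both 10 and 1 µM as test concentration; the first replicate is given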
Target sequence (P42568 whole entry, looked up): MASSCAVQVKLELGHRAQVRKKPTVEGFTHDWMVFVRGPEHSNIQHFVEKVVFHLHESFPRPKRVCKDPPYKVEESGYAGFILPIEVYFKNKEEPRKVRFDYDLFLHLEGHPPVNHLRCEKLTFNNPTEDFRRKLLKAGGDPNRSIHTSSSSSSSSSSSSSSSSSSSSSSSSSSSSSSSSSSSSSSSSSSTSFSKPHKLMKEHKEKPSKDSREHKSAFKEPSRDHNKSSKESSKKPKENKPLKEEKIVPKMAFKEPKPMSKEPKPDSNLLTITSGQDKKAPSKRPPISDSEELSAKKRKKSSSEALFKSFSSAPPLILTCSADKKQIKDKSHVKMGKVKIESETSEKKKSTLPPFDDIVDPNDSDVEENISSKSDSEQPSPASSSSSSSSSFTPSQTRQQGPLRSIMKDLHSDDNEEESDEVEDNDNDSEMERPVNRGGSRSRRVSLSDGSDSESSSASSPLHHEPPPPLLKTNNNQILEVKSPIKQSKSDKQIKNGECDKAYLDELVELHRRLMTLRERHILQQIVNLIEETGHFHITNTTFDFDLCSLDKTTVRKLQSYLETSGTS
Beta apoptosis: blocks beta cell apoptosis | 0.8% of 300,000 active | INS-1E cytokine-induced death, ATP luminescence, 48 h; percent of positive-control rescue, neutral wells zero | protection from apoptosis, % (concentration not given with the values) | AID 435005;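 active = all replicates at 75% or more, or half of them and the mean; inconclusive = half reach 75% but not the mean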;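 also: 0% = cytokine-treated negative control wells and 100% = positive control rescue; higher means more ATP so stronger rescue from cytokine killing; wells of about 40 µL received 100 nL stock; the first replicate is given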
Vif TR-FRET: HIV-1 Vif–A3G interaction blockers – biochemical, TR-FRET, GST-Vif 1-94, biotin-A3G peptide, dose response retest, primary screen (AID 1117319) | TR-FRET GST-Vif / biotin-A3G peptide binding; higher % means a stronger effect; test concentration not given here; strong numbers were not always called active | inhibition, %; hits with a dose series show IC50 in µM | 0.57% of 260,000 active;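 active = above the screen mean plus three standard deviations and confirmed in dose response; inconclusive = results disagree or hit not tested in dose response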;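 also: Vif residues 1-94 fused to GST binding biotinylated APOBEC3G peptide 110-148; 0% = full assay without inhibitor and 100% = GST in place of GST-Vif; retest series ran down from 100 µM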
rRNA inh HTS: inhibitors of bacterial rRNA selective over humanized ribosomes. E. coli WT GFP vs humanized-ribosome RFP mutants, fluorescence, 24 h; stronger effect = lower value; DMSO median 0, no signal -100. GFP signal change (wild-type ribosome), % (test concentration not listed). 1.6% of 350,000 active;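 active = significant combined selectivity score with lowered wild-type GFP, culture density cut under 30%, mutant RFP and density less affected; inactive = any of these conditions unmet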; also: one replicate is shown; some compounds called inactive have numbers as strong as hits
T cruzi inh: T. cruzi replication inhibition; T. cruzi beta-gal in NIH3T3, luminescence, 90 h; inhibition, % (no concentration beside the values); 1.4% of 300,000 active;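 active = mean inhibition across valid replicates above about 55%, limit read from the data; inconclusive = mean below that limit but half or more replicates reach it; inactive = mean below it, under half of replicates reach it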;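 also: signal also drops with host cell toxicity which is not excluded here; 0% = plate median of DMSO wells and 100% = zero luminescence signal; higher percent means less beta-gal luminescence so fewer parasites; stock transfer was 50 nL into about 50 µL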
Calb FLC: affects C. albicans growth with fluconazole; C. albicans CaCi-2 (fluconazole-resistant clinical isolate) + fluconazole, Alamar Blue growth, 48 h; growth inhibition, % (concentration not given with the values); 0.57% of 300,000 active;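 active = most replicates above 75%; inconclusive = exactly half above 75%; inactive = most below 75%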;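 also: all wells also contain fluconazole at 8 µg/ml as a sub-toxic cotreatment; 0% = median of DMSO wells and 100% = median of geldanamycin control wells; wells of about 8 µL received 7.5 nL stock; the first replicate is given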
RanGTP-Impb inh: inhibitors of RanGTP-importin-beta interaction, primary screen, biochemical, FRET, CFP-Ran, YFP-importin-beta, homogeneous; inhibition, % (test concentration not listed); 1.1% of 300,000 active; cell-free CFP-Ran/YFP-importin-beta FRET ratio;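 active = most replicates above 15%; inconclusive = exactly half above 15%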;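 also: 0% = DMSO wells and 100% = Ran loaded with GDP instead of GTP; wells of about 40 µL received 100 nL stock; the first replicate is given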
Bfl-1 A1 inh: inhibitors of the anti-apoptotic protein A1, read as caspase activation; MEF A1-2A-BIM cells, Caspase-Glo 3/7 luminescence, 3 h; percent of clofoctol response, vehicle zero; caspase activation, % (test concentration not listed); 0.066% of 330,000 active; AID 2462;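 active = over half of replicate activation scores above 10%, or exactly half above 10 with the replicate mean above 10; inconclusive = replicate mean below 10 yet half the replicates above 10; inactive = over half of replicates below 10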;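 also: wells of about 30 µL received 50 nL stock; many hits fall short of the cut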
rRNA inh HTS OD600: second read-out of rRNA inh HTS, no call of its own (marks repeat the call); OD600 change, %; measured here: OD600 growth;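 optical density of the mix in the first replicate; 0 = DMSO median and -100 = no signal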
rRNA inh HTS RFP: second read-out of rRNA inh HTS, no call of its own (marks repeat the call); RFP signal change, %; measured here: RFP humanized mutant strains;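 first replicate; 0 = DMSO median and -100 = no signal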
An asterisk follows results filed as active; u = inconclusive; x = not tested or not shown. These rows are one share of the data; count on the stated rates, not on these rows.

SMILES	AF4-AF9 inh	Beta apoptosis	Vif TR-FRET	rRNA inh HTS	rRNA inh HTS OD600	rRNA inh HTS RFP	T cruzi inh	Calb FLC	RanGTP-Impb inh	Bfl-1 A1 inh
COC(=O)c1ccccc1S(=O)(=O)N1CCC(C(=O)NCCC2=CCCCC2)CC1	1.3	2	-6%	-11	-15	-0.3	x	x	x	1.2
Cc1ccc(NC(=S)/C(=C(\[O-])c2ccc(Cl)s2)[n+]2cccc(CO)c2)cc1C	10	-7	0%	-1	2	-0.5	14	-2	-1.1	-0.9
COc1cc(CN2CCNC(=O)C2CC(=O)O)cc(OC)c1 (stereo not given)	-1.3	-6	x	14	3	-0.2	-7	9	3.1	-0.5
Nc1ncncc1-c1ccc([N+](=O)[O-])cc1	-3.6	-1	0%	-40	-34	-0.3	13	19	4.6	0.0
COC(=O)C(C)NC(=O)COc1ccc2ccccc2c1 (stereo not given)	0.5	-3	19%	7	2	-5.9	-10	11	0.0	0.0
Cc1ccc(Cn2ccsc2=NC(=O)COC(=O)c2ccc(NC(=O)CC#N)cc2)cc1	1.0	-1	-1%	-7	-13	1.6	9	-7	2.8	-0.8
Cc1c(C)c(C)c(C(=O)c2ccc(NC(=O)c3ccccc3C(=O)O)cc2)c(C)c1C	-6.8	1	-7%	-31	-43	-5.1	7	-2	-1.3	0.6
Cc1c(C(=O)N2CCN(c3ccccc3)CC2)sc2ncnc(N3CCN(c4ccccn4)CC3)c12	7.1	5	x	-8	-12	4.4	4	-9	0.3	0.0
O=C(COC(=O)c1cccc(C(=O)OCC(=O)NCc2ccc(F)cc2)n1)NCc1ccc(F)cc1	0.8	-6	x	0	1	-5.6	-9	15	0.5	0.0
COc1ccc(OC)c(NC(=S)NCc2ccccc2OC)c1	8.2	-2	-2%	-8	-9	-4.0	-16	0	1.3	u
CC(C)[C@H](NC(=O)c1ccccc1Cl)C(=O)NC1CCCCCC1	-5.9	-4	1%	6	4	-1.2	13	-40	0.9	-0.2
Nc1nonc1-n1nnc(C(=O)N/N=C/c2cccc(O)c2)c1CN1CCCC1	-1.9	-1	x	27	29	7.1	x	5	x	1.9
CC1(C)N=C(c2ccccc2)C(=O)N1	x	-1	2%	x	x	x	-8	-11	0.7	0.0
COc1ccc(S(=O)(=O)N(CC(=O)N2CCN(C)CC2)c2ccc(C)cc2)cc1Br	-2.3	x	x	-2	-2	3.8	-15	-26	5.3	x
CCOC(=O)c1c(-c2ccccc2)oc2ccc(O)c(CN(C)C)c12	x	-2	-7%	x	x	x	26	25	6.2	-0.5
Clc1ccc(Cc2nc(-c3ccncc3)no2)cc1	-0.3	-4	x	-11	-11	1.5	8	1	0.4	0.3
O=S(=O)([N-]c1nc2ccccc2nc1-[n+]1ccccc1)c1ccc(F)cc1	-2.8	2	-1%	7	3	-4.2	-6	-2	1.1	0.3
O=C(NNC1CC(=O)N(c2cccc(Cl)c2)C1=O)c1cccnc1 (stereo not given)	x	-1	12%	x	x	x	11	0	5.5	-1.0
Cc1cc(C)c2nc3nc(C)cc(C)c3c(N)c2c1	0.6	40	x	x	x	x	59*	0	123*	-1.1
COc1cc2c(cc1OC)C(CC(=O)O)N(C(=O)CC1CCCC1)CC2 (stereo not given)	-2.6	0	x	-6	9	0.8	-4	-2	0.3	0.2
COc1cc(C(=O)OCC(=O)NCc2ccccc2)cc(NC(=O)c2ccco2)c1OC	x	-6	-3%	x	x	x	-1	0	-1.9	0.2
Cn1ccnc1SCC(=O)n1c2c(c3ccccc31)CCCC2	x	-6	7%	x	x	x	16	-13	7.4	-0.1
O=C(NCc1cccc(Cl)c1)C1CCCN(c2ncnc3c2nc2n3CCCCC2)C1 (stereo not given)	-0.1	5	x	-4	6	-1.6	7	0	0.0	-1.1
NC(=O)CSc1ncnc2c1oc1ccccc12	-9.8	-4	10%	-6	-10	3.3	-16	2	0.4	-0.4
Cn1c(=O)n(C)c2cc(C(N)=O)ccc21	-1.2	-4	u	11	4	-0.8	1	8	0.8	0.3
O=S(=O)(Nc1ccc(O)c(Sc2nc3ccccc3s2)c1)c1ccc(F)cc1	x	-8	x	x	x	x	8	55	0.7	0.6
CC(C)N1C(=O)CCC1C(=O)NCCc1ccccc1 (stereo not given)	x	-2	16%	x	x	x	-5	1	1.8	u
O=C(O/N=C1\CCS(=O)(=O)c2sccc21)c1ccc(F)cc1	-0.8	0	-3%	10	10	3.2	-8	-20	2.6	0.5
Cc1ccc(CNn2cnnc2SCC(=O)NC(C)(C)C)cc1	x	-1	-6%	x	x	x	3	-5	6.0	-0.3
CC(=O)Oc1ccc2c(C)cc(=O)oc2c1C(=O)c1ccccc1	1.1	-7	2%	-2	-12	-1.6	11	-1	-2.2	1.2
O=C(O)C1C2CCC(O2)C1C(=O)Nc1ccc(F)cc1 (stereo not given)	-2.0	x	2%	15	20	2.3	-3	-5	u	-0.1
CCc1nnc(NC(=O)c2ccc(Br)o2)s1	-1.7	-5	x	6	14	-1.1	4	23	u	0.2
CCCC1NC(C(=O)O)Cc2c1[nH]c1ccccc21 (stereo not given)	7.6	1	x	5	-2	2.4	-9	2	11	1.7
CCCOC(=O)c1c(NC(=O)CCC(=O)O)sc2c1CCCCC2	-2.9	0	8%	1	-6	-0.3	-5	-6	1.2	0.2
Cn1c(=O)cc(OCC(=O)NCCc2ccc(Cl)cc2)c2ccccc21	-3.4	0	-2%	3	-1	0.2	8	23	-0.2	1.5
CSc1nc2ccc(NC(=O)C3CCCO3)cc2s1 (stereo not given)	x	-2	21%	x	x	x	0	-3	-1.0	-5.0
CCOc1ccc(NC(=O)CCC(=O)NNC(=O)COc2ccccc2C)cc1	-1.3	-3	-11%	20	21	1.3	-8	0	-3.1	0.4
O=C(/C=C/c1ccc(Cl)cc1)NCCc1ccccc1	-1.2	-4	x	x	x	x	10	28	-0.8	0.2
CNC(=O)CN(c1cc(OCCOC)c(Cl)cc1Cl)S(=O)(=O)c1ccc(OC)cc1	3.2	-1	-1%	15	13	4.3	5	24	1.1	0.6
COc1cc(NC(=O)CCN2CCN(c3ccccc3F)CC2)cc(OC)c1	x	-5	5%	x	x	x	13	-10	-2.5	0.1

No new results follow: an excerpt of the list.
SMILES	AF4-AF9 inh	Beta apoptosis	Vif TR-FRET	rRNA inh HTS	rRNA inh HTS OD600	rRNA inh HTS RFP	T cruzi inh	Calb FLC	RanGTP-Impb inh	Bfl-1 A1 inh
CNC(=O)CN(c1cc(OCCOC)c(Cl)cc1Cl)S(=O)(=O)c1ccc(OC)cc1	3.2	-1	-1%	15	13	4.3	5	24	1.1	0.6
COc1cc(NC(=O)CCN2CCN(c3ccccc3F)CC2)cc(OC)c1	x	-5	5%	x	x	x	13	-10	-2.5	0.1

In the list so far, 4 have a furan ring, fused or not:
SMILES	AF4-AF9 inh	Beta apoptosis	Vif TR-FRET	rRNA inh HTS	rRNA inh HTS OD600	rRNA inh HTS RFP	T cruzi inh	Calb FLC	RanGTP-Impb inh	Bfl-1 A1 inh
CCOC(=O)c1c(-c2ccccc2)oc2ccc(O)c(CN(C)C)c12	x	-2	-7%	x	x	x	26	25	6.2	-0.5
COc1cc(C(=O)OCC(=O)NCc2ccccc2)cc(NC(=O)c2ccco2)c1OC	x	-6	-3%	x	x	x	-1	0	-1.9	0.2
NC(=O)CSc1ncnc2c1oc1ccccc12	-9.8	-4	10%	-6	-10	3.3	-16	2	0.4	-0.4
CCc1nnc(NC(=O)c2ccc(Br)o2)s1	-1.7	-5	x	6	14	-1.1	4	23	u	0.2

Going on with the list:
SMILES	AF4-AF9 inh	Beta apoptosis	Vif TR-FRET	rRNA inh HTS	rRNA inh HTS OD600	rRNA inh HTS RFP	T cruzi inh	Calb FLC	RanGTP-Impb inh	Bfl-1 A1 inh
CCCC[C@@H]1CNCCN1CCc1cc(C(F)(F)F)cc(C(F)(F)F)c1	-5.1	1	x	-58	-76	-36	30	-1	u	1.1
CC(c1nccs1)N(C)C(=O)CCc1nnc(Cc2c[nH]c3ccccc23)o1 (stereo not given)	13	-5	x	1	5	-1.2	11	3	2.5	0.3
COc1ccc(OCC(=O)Nc2ccc(Cl)cc2)cc1	-0.8	1	12%	1	6	-2.0	-7	10	-4.4	-0.2
CC(Oc1ccc(F)cc1)C(=O)Nc1ccc(S(=O)(=O)NC2=NCCCCC2)cc1 (stereo not given)	1.3	3	7%	11	-1	4.5	x	x	x	2.8
CCCNC(=O)CSc1nnc(-c2ccc(F)cc2)o1	-2.8	-10	-1%	13	18	-0.4	x	-35	1.4	-0.7
O=C(N/N=C/c1cccnc1)C1CC1(c1ccccc1)c1ccccc1 (stereo not given)	4.1	-5	-6%	-41	-56	-5.1	8	8	-2.1	-0.8
C=C(C)n1c(=O)[nH]c2ccccc21	x	-4	4%	x	x	x	-18	-7	-1.6	-0.9
CCOC(=O)Cn1c(=O)oc2cc(S(=O)(=O)NC3CCCCC3)ccc21	x	-1	x	x	x	x	-2	9	2.1	-0.1
CCc1nnc(NC(=O)CSc2ncnc3c2cnn3-c2ccc(OC)cc2)s1	x	1	10%	x	x	x	9	19	-3.1	-3.7
Cc1ccc(/C=C/C(=O)O)cc1S(=O)(=O)NCc1ccco1	-1.4	-6	0%	8	-1	-1.5	-17	-2	-2.8	0.3
CC(=O)Nc1ccc(S(=O)(=O)C(C#N)c2nc3ccccc3nc2NCCCO)cc1 (stereo not given)	-1.4	-1	u	6	-13	4.7	-7	-22	4.4	0.7
C=CCC1(N(C(C)=O)c2ccccc2C)CCCCC1	-1.5	-5	x	x	x	x	-24	-3	0.6	-0.4
CCCCCC(=O)N(O)C1CC(=O)N(c2ccccc2)C1=O (stereo not given)	x	-12	3%	x	x	x	-9	3	-4.6	0.7
OC(CNC1CCCCC1)CNC1CCCCC1	-0.5	2	-2%	14	20	2.2	-12	6	-5.1	0.8
c1ccc2c(c1)ncn2CCOCCOCCn1cnc2ccccc21	x	7	-1%	x	x	x	0	-3	-0.8	1.7
Cc1ccc2c(c1)C(c1ccc(F)cc1)N(C(=O)c1ccc(S(=O)(=O)N(C)C)cc1)CC(=O)N2 (stereo not given)	1.6	3	-1%	-2	4	1.7	-5	-6	1.5	-0.7
O=C(Nc1cc(F)ccc1F)c1cccc(-n2cnnn2)c1	-0.7	-5	1%	10	8	0.6	-21	-13	0.9	-0.7
CCc1ccc2[nH]c(C(=O)Nc3ccc(C)c(F)c3)cc2c1	-1.4	10	-12%	-7	0	0.5	10	-1	4.3	1.1
CC(C)C1Nc2ccc(C(=O)NCCCN3CCOCC3)cc2NC1=O (stereo not given)	x	0	x	x	x	x	-6	-4	-3.2	1.3
COCCNC(=S)NN(c1ccccc1)c1ccccc1	3.1	-8	6%	4	-1	-5.4	-16	5	3.6	0.4
